Compound activity deposited in PubChem by ICCB-Longwood Screening Facility, Harvard Medical School.
Sa growth 42C – blocks Staphylococcus aureus growth | 170,000 tested, 0.53% active | S. aureus RN4220 growth, OD600, 20 h, 42 °C; stronger effect = lower value | AID 720641 | relative growth, % (no concentration beside the values);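 active = growth at 42 °C up to 50% and 20 or more points under that at 30 °C, or under 10% at both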;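 also: 300 nL library stock went into each well; scaled to the means of positive and negative controls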
HCMV NEC inh – cytomegalovirus nuclear egress complex inhibition; 190,000 tested, 0.15% active; inhibition, % (test concentration not listed); HTRF UL50-UL53 interaction, normalized percent inhibition; AID 1918969;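 active = both replicates at 50% or more, plus weaker picks with an unusually low signal ratio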;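 also: stock transfer was 100 nL into about 20 µL; 0% = negative control wells and 100% = wells with untagged competitor protein; inactives centre near -12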
GIV-Gai inh – GIV-Galpha-i interaction inhibition. P08753. Galpha-i3/FITC-GIV peptide fluorescence polarization, 90 min; stronger effect = lower value; scaled: aluminum fluoride 0%, vehicle 100%. percent of control (FP), % (test concentration not listed). 210,000 tested, 0.42% active;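 active = replicate mean at 85% of control or lower, very high polarization wells dropped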;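 also: wells of about 15 µL received 100 nL stock; the first replicate is given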
Target sequence (P08753 whole entry, looked up): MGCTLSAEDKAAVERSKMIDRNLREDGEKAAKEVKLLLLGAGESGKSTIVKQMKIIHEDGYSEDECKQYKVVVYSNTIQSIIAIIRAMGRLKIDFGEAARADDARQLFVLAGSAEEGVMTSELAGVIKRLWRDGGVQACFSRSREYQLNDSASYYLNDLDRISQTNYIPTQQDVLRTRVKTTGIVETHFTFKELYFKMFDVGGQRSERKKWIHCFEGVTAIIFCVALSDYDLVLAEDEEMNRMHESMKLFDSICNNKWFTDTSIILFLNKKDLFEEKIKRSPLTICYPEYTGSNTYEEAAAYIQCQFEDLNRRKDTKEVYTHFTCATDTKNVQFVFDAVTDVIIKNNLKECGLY
Sa growth 42C second temp – second read-out of Sa growth 42C, no call of its own (marks repeat the call); relative growth, %; measured here: growth at 30 °C;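 optical density after 20 h as mean of two plates; 100% = untreated growth and lower means inhibition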
* hit, by the source's call; . = not tested or not shown.

SMILES	Sa growth 42C	Sa growth 42C second temp	HCMV NEC inh	GIV-Gai inh
O=C1C2=C(Nc3[nH]c(=O)[nH]c(=O)c3C2c2ccccc2)c2ccccc21 (stereo not given)	100	97	-73	106
Cc1ccc2nc(-c3ccc(Cl)c(NC(=O)c4cccnc4)c3)oc2c1	97	96	-1	107
COCCN1Cc2cccc(C(=O)N3CCN(c4ccc(F)cc4)CC3)c2C1=O	102	98	.	103
CCOc1ccc(CCNS(=O)(=O)c2cnc[nH]2)cc1OCC	105	90	5	102
Cn1cnnc1SCN1C(=O)c2ccccc2C1=O	88	92	-6	.
CN=C1SC(C(=O)Nc2ccccc2)CC(=O)N1C (stereo not given)	82	106	6	105
CCOc1ccccc1NC(=O)c1ccc(C(=O)Nc2ccccc2OCC)cc1	97	85	-48	107
Cc1nc(-c2noc(-c3ccc(Cl)cc3)n2)c(C(F)(F)F)o1	92	86	-49	101
CCOCCCNC(=O)c1cc(=O)n(CC)c2c1c(=O)n(CC)c(=O)n2C	.	.	0	97
COc1ccnc2c1c(=O)n(CC(=O)N1CCCc3ccccc31)c(=O)n2C	.	.	1	104
CCOC(=O)c1ccccc1Oc1c(F)c(F)nc(NCCO)c1F	107	69	.	104
CC1(NC(=O)N2CCOCC2)CCS(=O)(=O)C1 (stereo not given)	97	93	10	104
Cc1ccccc1N1C(=O)CSC1=C(C#N)C#N	102	83	.	104
COCc1nc2ccccc2n1CCOc1ccccc1C	.	.	0	108
CSc1ccc(CCNC(=O)c2c(C)oc3ncn(C)c(=O)c23)cc1	97	90	.	107
C=CCn1c(C23CC4CC(CC(C4)C2)C3)n[nH]c1=S	97	86	-18	107
O=C(CSc1nnc(-c2ccco2)c(-c2ccco2)n1)Nc1ccc(C(=O)O)cc1	87	65	-64	77*
Cc1c(C(=O)N(C)C)sc2c1c(=O)n(-c1ccc(F)cc1)c(=O)n2CC(=O)N(C)c1ccccc1	83	87	.	99
CCOC(=O)c1c(C)c(C(=O)N2CCCC2)c(C)n1CC	98	85	-35	108
CCOC(=O)c1c(P(=O)(N2CCOCC2)N2CCOCC2)noc1N	101	104	8	105
O=C(c1ccco1)N(Cc1ccco1)C1CCS(=O)(=O)C1 (stereo not given)	105	99	-9	103
O=C(CSCc1cc(=O)n2[nH]cnc2n1)Nc1ccccc1	.	.	-12	103
Cc1ccc(SC(=O)c2ccc(OC(F)(F)F)cc2)cc1	96	89	-9	103
O=C1CC(n2c(=O)oc3ccccc32)C2COC1O2 (stereo not given)	80	63	-20	.
CCNC(=O)N1CCCC(c2cccc(C(=O)NCCN3CCCCC3)c2)C1 (stereo not given)	.	.	-23	107
CCc1nc2ccc(C(=O)N3CCN(c4cccc(Cl)c4)CC3)cc2nc1CC	78	48	.	98
c1ccc(C2Sc3ccccc3N=C3c4ccccc4SCC32)cc1 (stereo not given)	97	96	-6	102
CN(C)S(=O)(=O)c1ccc(Nc2nc3ccccc3n3cnnc23)cc1	111	79	0	98
CCSc1cc(C)nc(NC(=O)CC)n1	82	84	-16	.
O=S1(=O)c2ccccc2-c2cc(Br)ccc21	102	100	-28	95
O=C(O)CCc1ccc(-c2cccs2)n1-c1ccc(C(=O)O)cc1	83	78	-16	102
COc1ccc(F)cc1S(=O)(=O)Nc1cccc(-c2ccc(N3CCCCC3)nn2)c1	110	78	-38	108
O=C(NCc1csc(-c2cccs2)n1)c1ccsc1	105	93	-64	108
Cc1occc1-c1nnc2sc(-c3cccnc3)nn12	.	.	-19	109
Cc1ccccc1N1C(=O)c2ccccc2C(CC(=O)N(C)C)(CC(=O)N(C)C)C1=O	86	90	-10	.
O=C1c2ccccc2CN1C(CO)Cc1ccccc1 (stereo not given)	.	.	-18	98

Structural class, the entries above containing a CF3 group.
SMILES	Sa growth 42C	Sa growth 42C second temp	HCMV NEC inh	GIV-Gai inh
Cc1nc(-c2noc(-c3ccc(Cl)cc3)n2)c(C(F)(F)F)o1	92	86	-49	101
Cc1ccc(SC(=O)c2ccc(OC(F)(F)F)cc2)cc1	96	89	-9	103

Going on with the list:
SMILES	Sa growth 42C	Sa growth 42C second temp	HCMV NEC inh	GIV-Gai inh
CCn1c(Cn2cccn2)nc2cc(NC(=O)c3ccccc3)ccc21	.	.	-14	101
Cc1cc(C(=O)NCCCN2CCOCC2)no1	.	.	24	100
CC(C(=O)O)N1Cc2ccccc2C1=O (stereo not given)	.	.	-4	107
Cc1oc2cc(Br)c(OC(=O)c3ccco3)cc2c1C(=O)OC(C)C	95	86	.	101
N#Cc1c(Cl)nc(Cl)c(Cl)c1Cl	66	83	22	.
Nc1cc(Cl)ccc1C(=O)OCC(=O)NCC1CCCCC1	104	100	8	.
CC(C)Cn1c(SCC(=O)c2ccc(S(=O)(=O)N3CCOCC3)cc2)nc2ccccc21	116	94	7	.
Cc1ccc(-c2cc(-c3c(C)nn(C)c(=O)c3N)[nH]n2)cc1	108	91	-77	95
Cc1ccc(CNC(=O)C2CCN(C(=O)c3ccc(-n4ccc5ccccc54)s3)CC2)o1	126	99	11	107
COc1ccccc1NC(=O)NCCC(=O)N1CCCC1	98	94	-22	.
COc1ccccc1C(CCNS(=O)(=O)c1ccc(C)cc1)c1ccco1 (stereo not given)	105	73	.	100
CC1CCCCC1NC(=O)c1cn(-c2ccccc2)nc1-c1cccs1 (stereo not given)	90	92	-26	.

Complete entries, looked up by structure. Screens in order: Sa growth 42C, Sa growth 42C second temp, HCMV NEC inh, GIV-Gai inh
Shown for Cc1oc2cc(Br)c(OC(=O)c3ccco3)cc2c1C(=O)OC(C)C : 95, 86, ., 101
Shown for Cc1ccc(CNC(=O)C2CCN(C(=O)c3ccc(-n4ccc5ccccc54)s3)CC2)o1 : 126, 99, 11, 107
Shown for CCn1c(Cn2cccn2)nc2cc(NC(=O)c3ccccc3)ccc21 : ., ., -14, 101
Shown for Nc1cc(Cl)ccc1C(=O)OCC(=O)NCC1CCCCC1 : 104, 100, 8, .
Shown for CC(C(=O)O)N1Cc2ccccc2C1=O (stereo not given) : ., ., -4, 107

Returning to the listing with the five entries that preceded the break.
SMILES	Sa growth 42C	Sa growth 42C second temp	HCMV NEC inh	GIV-Gai inh
Cc1ccc(-c2cc(-c3c(C)nn(C)c(=O)c3N)[nH]n2)cc1	108	91	-77	95
Cc1ccc(CNC(=O)C2CCN(C(=O)c3ccc(-n4ccc5ccccc54)s3)CC2)o1	126	99	11	107
COc1ccccc1NC(=O)NCCC(=O)N1CCCC1	98	94	-22	.
COc1ccccc1C(CCNS(=O)(=O)c1ccc(C)cc1)c1ccco1 (stereo not given)	105	73	.	100
CC1CCCCC1NC(=O)c1cn(-c2ccccc2)nc1-c1cccs1 (stereo not given)	90	92	-26	.
O=C1CC(c2nc(Cn3c(=O)oc4ccccc43)no2)CN1c1ccccc1 (stereo not given)	.	.	-33	107
CCc1ccc(-c2nn(CC(=O)NC3CCCCC3)c3c2cnc2ccc(OC)cc23)cc1	113	90	.	101
Cc1cc(C)cc(Nc2c3c(nc4nc(C)nn24)CCC3)c1	.	.	1	104
Cc1cc(C(=O)N2CCCCC2)c2cc(F)ccc2n1	92	98	1	110
CC(=O)N1CCC(N(CCCN2CCC(C)CC2)C(=O)NC23CC4CC(CC(C4)C2)C3)CC1	104	98	-26	100
CCc1ccc(NC(=O)Cn2c(=O)n(CCCCC(=O)NCCc3ccccc3)c(=O)c3ccccc32)cc1	96	90	-20	102
COC(=O)C1Cc2c([nH]c3ccccc23)C(C)N1 (stereo not given)	105	88	.	110
CCOC(=O)C1CCN(C(=O)CSc2ccc(NC(C)=O)cc2)CC1	99	100	5	.
CSc1nnc(NCc2cccc(Cl)c2)s1	117	65	-7	103
COc1ccc(C)cc1NC(=O)CSc1nnc(C(F)(F)F)n1C	108	91	0	103
CCC(=O)NC(Nc1sc2c(c1C#N)CCCC2)(C(F)(F)F)C(F)(F)F	94	77	-8	.
O=c1[nH]nc(SCc2nc(-c3cccs3)no2)n2nc(-c3cccs3)cc12	.	.	-3	108
CCc1cc2c(cc3c(=O)n(CC(=O)NCCc4ccccc4)ncn32)s1	121	107	-29	102
CCOc1ccc(CCNC(=O)c2nn(-c3ccc(OC)cc3)c(=O)c3c2c2ccccc2n3C)cc1OCC	103	91	-28	101
Cc1ccccc1CN1C(=O)c2ccccc2Sc2ccc(C(=O)NCCCN3CCOCC3)cc21	80	44	.	105
Cc1ccc(NC(=O)c2cc(S(=O)(=O)NC3CCCCCC3)ccc2F)cc1F	114	88	.	100
COc1cc2[nH]c(=O)c(C(=O)NCCN3CCCC3)c(O)c2cc1OC	92	72	-16	107
CCOC(=O)c1c(-c2ccccc2)oc2c1cc(OC(=O)c1ccccc1Br)c1ccccc12	.	.	0	98
Cc1nc(Cc2nc3ccccc3n2Cc2ccccc2F)no1	81	90	-15	105
CCn1c(=O)cc(SCC(=O)NC2CCCCC2)c2ccccc21	97	89	-12	103
O=C(Nc1c(C(=O)NCCc2ccccc2)[nH]c2ccc(F)cc12)c1ccccc1	.	.	-16	106
COc1cc2nc(SCc3ccc(C)cc3)n3nc(-c4ccccc4)nc3c2cc1OC	112	92	.	99
c1ccc(CN2CCCC(c3nc4ccccc4[nH]3)C2)cc1 (stereo not given)	71	77	-39	104
CCOC(=O)CSc1nnc(-c2ccccc2)n1-c1ccccc1	102	91	-9	107
COc1ccc(C(=O)Nc2ccc3c(c2)C(=O)N(CCC(=O)O)C3=O)cc1	101	108	.	101
CCOc1ccccc1NC(=O)Cn1cc(S(=O)(=O)N2CCC(C)CC2)c2ccccc2c1=O	103	88	.	102
C[N+](C)(Cc1ccccc1)Cc1ccccc1	79	92	-1	.
COc1cccc(NC(=O)CN2CCCn3nc(C)cc32)c1	.	.	-6	100
CCn1nc(C)c2c1c(=O)n(Cc1ccccc1)c(=O)n2CC(N)=O	.	.	7	102
CCSc1nnc(SC/C(O)=C(\C(=O)OC)c2nc3ccccc3[nH]2)s1	96	93	-5	.
C#CCNc1ccccc1	124	88	-2	106
Cc1c(C#N)c(NC(=O)c2cccs2)n(CC2CC2)c1C	92	99	2	110
CCCC(=O)N(c1ccc(OCC)cc1)S(=O)(=O)c1ccc2c(c1)n(C)c(=O)n2C	88	96	1	108
Cc1ccc(C)c(N2CCN(CCCNC(=O)C3CCCN(c4ncnc5c4nc4n5CCCCC4)C3)CC2)c1 (stereo not given)	93	80	-17	108
CCOC(=O)N1CCN(S(=O)(=O)c2ccc(C(=O)Nc3ccccc3-c3nc4ccccc4s3)cc2)CC1	.	.	-14	100
O=C1c2cc3ccccc3cc2C(=O)C1c1ccccc1	109	85	-109	105
COC(=O)c1ccc(NC(=O)C2CC(=O)N(C)C(=Nc3cc(Cl)ccc3Cl)S2)cc1 (stereo not given)	.	.	-4	108
Cc1cc(C(=O)CN2CCN(Cc3ccc4c(c3)OCO4)CC2)c(C)n1-c1ncn[nH]1	110	91	-13	.
O=S(=O)(NCC(c1ccccc1)N1CCC(O)CC1)c1ccc(Cl)cc1 (stereo not given)	.	.	12	102
